# Bioassay records from PubChem BioAssay.
# Measles inh: inhibitors of measles virus growth in infected cells. infected Vero cells, GFP fluorescence, 64 h; active compounds read low. z-score (test concentration not listed). 33,000 tested, 0.1% active. AID 745;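 active = z-score under -3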;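 note: score is relative to mean and SD of the compound wells of a plate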
# * marks the source's active call; other numbers are inactive results.
SMILES,Measles inh
Cc1ccc(CNC(=O)c2ccc(Cn3c(=O)c4ccccc4n(Cc4ccccc4C#N)c3=O)cc2)cc1,0.56
Cc1cc(C)c(C#N)c(SCSCc2ccc(Cl)cc2)n1,-0.11
CCOC(=O)C1CCCN(C(=O)C2c3ccccc3C(=O)N3CCc4cc(OC)c(OC)cc4C23)C1 (centres undefined),1.7
Cc1c(C(=O)NCc2cccs2)oc2ccc(S(=O)(=O)N3CCC(C)CC3)cc12,-1.6
CC1CCCN(CCCNS(=O)(=O)c2cccc3nsnc23)C1 (centres undefined),-0.05
CC(=O)c1c(C(F)(F)F)n[nH]c1C,-0.27
COc1ccc(-c2nnc(NC(=O)c3ccc(S(=O)(=O)N4CCCCCC4)cc3)o2)c(OC)c1,-0.87
Cc1cccc(NC(=O)c2ccc(NC(=O)Cc3nn(C)c(=O)c4ccccc34)cc2)c1,-0.63
CCc1ccccc1NC(=O)C(NS(=O)(=O)c1cccs1)c1ccccc1 (centres undefined),0.33
CCCOc1ccc(C(=O)Nc2ccc(-c3nc4ncccc4o3)cc2)cc1,1.7
COc1ccccc1NC(=O)CSc1nc2c(sc3ccccc32)c(=O)n1CCc1ccccc1,-0.49
O=C(c1ccc(F)cc1)N1CCN(C(=O)c2ccc(F)cc2)CC1,-0.37
c1csc(-c2ncnn2-c2cc3c(s2)CCCCCC3)c1,-0.02
COc1ccc(C(=O)Nc2cccc(-c3nc4ccccc4[nH]3)c2)cc1,-0.25
Cc1ccc(Nc2c(-c3ccccn3)nc3ccc(Cl)cn23)cc1,-1.6
CCC1(C)CC(CC(=O)O)(c2ccccc2OC)CCO1 (centres undefined),-0.5
COC(=O)C1=C(C)N=C2SCCC(=O)N2C1c1cccc(Br)c1 (centres undefined),0.53
CCc1ccccc1OCC(=O)Nc1ccc(S(N)(=O)=O)cc1,-0.65
O=C(CSc1nc2c(c(=O)n1Cc1ccccc1)C1(CCCC1)Cc1ccccc1-2)N1CCCCC1,0.15
O=C(c1nsc(Cl)c1Cl)N1CCN(C(=O)c2nsc(Cl)c2Cl)CC1,-0.43
Cc1cc(C)cc(NC(=O)CSc2nc3c(c(=O)n2C)SC(C)C3)c1 (centres undefined),0.32
Nc1c(C(=O)Nc2nc(-c3ccccc3)cs2)sc2nc3c(cc12)CCCCC3,-0.66
CC(=O)c1c(C)[nH]c(C(=O)NCCCN2CCCC2)c1C,1.4
COC(=O)c1nnn(CC(=O)Nc2cccc(Cl)c2C)c1N,1.1
COc1ccccc1CNC(=O)CSc1nc2nc(C)c(Cc3ccc(C)cc3)c(C)n2n1,-0.67

# Looked up above.
# Value of `CCc1ccccc1OCC(=O)Nc1ccc(S(N)(=O)=O)cc1` under Measles inh: -0.65
# Value of `Cc1ccc(CNC(=O)c2ccc(Cn3c(=O)c4ccccc4n(Cc4ccccc4C#N)c3=O)cc2)cc1` under Measles inh: 0.56
# Value of `CCc1ccccc1NC(=O)C(NS(=O)(=O)c1cccs1)c1ccccc1` (centres undefined) under Measles inh: 0.33
# Value of `CCCOc1ccc(C(=O)Nc2ccc(-c3nc4ncccc4o3)cc2)cc1` under Measles inh: 1.7
# Value of `COC(=O)c1nnn(CC(=O)Nc2cccc(Cl)c2C)c1N` under Measles inh: 1.1
# Value of `Cc1c(C(=O)NCc2cccs2)oc2ccc(S(=O)(=O)N3CCC(C)CC3)cc12` under Measles inh: -1.6

# (list continues)
SMILES,Measles inh
Cc1ccnc(SCc2cn3cccnc3n2)n1,-0.74
CCOC(=O)c1ccc(-c2nnc(-c3cc(I)cc([N+](=O)[O-])c3)o2)cc1,-0.31
O=C(CCC(=O)OCC(F)(F)C(F)F)Nc1ccc(Cl)cc1,-0.41
CC(C)c1ccc(N(C)S(=O)(=O)c2ccc3[nH]cc(C(=O)N4CCCCC4)c(=O)c3c2)cc1,-0.91
COc1ccc(S(=O)(=O)C(F)(F)F)cc1[N+](=O)[O-],0.91
O=C(CS(=O)(=O)c1c[nH]c2ccccc12)N1CCc2ccccc21,1
Fc1ccccc1-c1nc(-c2cccs2)c(-c2cccs2)[nH]1,0.24
COc1ccc(CCNc2ncnc3scc(-c4ccccc4)c23)cc1OC,-0.07
c1ccc2c(c1)OCC(c1csc3ncnc(N4CCCCC4)c13)O2 (centres undefined),-0.6
CCOC(=O)CC(=O)Nc1ccccc1C(=O)OC,0.87
CC(C)C12CN3CC(C(C)C)(CN(C1)C3c1ccc(O)c(O)c1)C2=O (centres undefined),0.02
COc1cc(C2C(C(=O)OC(C)C)=C(C)NC3=C2C(=O)CCC3)ccc1OCc1ccccc1 (centres undefined),-0.82
O=C(Nc1ccc(O)c(-c2nc3ccccc3o2)c1)c1ccccc1Cl,0.6
CN(c1ccc(Cl)cc1)S(=O)(=O)c1ccc2[nH]cc(C(=O)NCC3CCCO3)c(=O)c2c1 (centres undefined),-1.3
CCCCN(Cc1ccccc1)C(=O)C1CCN(S(=O)(=O)c2c(C)n[nH]c2C)CC1,1.1
COc1cccc2cc(-c3csc(NC(=O)CCC(=O)NC4CCCCCC4)n3)c(=O)oc12,-0.14
O=C(NCc1ccc(F)cc1)c1cc2nc(-c3cccs3)cc(C(F)(F)Cl)n2n1,-1.7
O=C(O)CCC(=O)Nc1sc2c(c1C(=O)Nc1ccccc1)CCCC2,1.2
CC12CC(NC(=S)N1c1ccccc1)c1cc([N+](=O)[O-])ccc1O2 (centres undefined),-0.23
O=C(NCCc1ccccc1Cl)c1ccc(Cn2c(=S)[nH]c3cc4c(cc3c2=O)OCO4)cc1,-1.2
O=C(NCCc1ccccc1)C1c2ccccc2C(=O)N1C1CCCCCC1 (centres undefined),-0.63
COc1cccc(NC(=O)CC2SC(=Nc3ccc(C(=O)O)cc3)NC2=O)c1 (centres undefined),-0.86
O=C(CSc1nc2c(c(=O)n1-c1ccc([N+](=O)[O-])cc1)SCC2)N1CCCc2ccccc21,-2.5
Cc1ccc(NC(=O)C(C)N2C(=O)c3ccccc3C2=O)cc1Cl (centres undefined),0.02
O=C(NCc1ccc2c(c1)OCO2)C1CCCN(S(=O)(=O)c2cccc3nonc23)C1 (centres undefined),-0.47

# Ordered by the number under Measles inh (descending): 5 of the compounds above.
SMILES,Measles inh
O=C(O)CCC(=O)Nc1sc2c(c1C(=O)Nc1ccccc1)CCCC2,1.2
O=C(CS(=O)(=O)c1c[nH]c2ccccc12)N1CCc2ccccc21,1
CC(C)C12CN3CC(C(C)C)(CN(C1)C3c1ccc(O)c(O)c1)C2=O (centres undefined),0.02
COc1cccc2cc(-c3csc(NC(=O)CCC(=O)NC4CCCCCC4)n3)c(=O)oc12,-0.14
O=C(NCc1ccc(F)cc1)c1cc2nc(-c3cccs3)cc(C(F)(F)Cl)n2n1,-1.7

# The results go on.
SMILES,Measles inh
COC(=O)c1sc(NC(=O)c2ccccc2Cl)nc1C,-0.18
COc1ccc(COC(=O)C2=C(C)NC3=C(C(=O)CC(c4cccs4)C3)C2c2cccs2)cc1 (centres undefined),-0.57
COc1cc2c(cc1OC)C(c1sccc1C)CC(=O)N2 (centres undefined),-0.01
CCSCCOC(=O)C1=C(C)NC2=C(C(=O)CCC2)C1c1ccccc1Cl (centres undefined),1.4
O=C(Cc1cccc2ccccc12)Nc1ccccc1-c1nc2ccccc2s1,-1
Cc1ccc(C(=O)NCc2ccccc2)cc1,1.4
COc1cc(C(=O)N2N=C(C(F)F)CC2(O)C(F)F)cc(OC)c1OC (centres undefined),0.4
O=C(CCS(=O)(=O)c1cccc2nonc12)N1CCOCC1,1.6
CCOC(=O)C1=C(C)N(CC)C(=O)NC1c1ccccc1[N+](=O)[O-] (centres undefined),0.11
CN=Cc1cc(-c2ccccc2)sc1S,-1.5
COc1ccc(Cn2c(=O)[nH]c3cc(C(=O)N4CCN(Cc5ccccc5)CC4)ccc3c2=O)cc1,-0.31
Cc1cc([N+](=O)[O-])ccc1NC(=O)CC1Sc2ccccc2NC1=O (centres undefined),0.01
O=S(=O)(Nc1cc2c3c(oc2c2ccccc12)CCCC3)c1ccc(F)cc1,-0.3
CCC(C)OC(=O)C1=C(C)NC2=C(C(=O)C(C(=O)OC)C(C)C2)C1c1ccc(O)c(OC)c1 (centres undefined),0.45
COC(=O)c1c(NC(=O)CN2C(=O)C3C4C=CC(C4)C3C2=O)sc(C)c1C (centres undefined),0.2
CC(C)Nc1c(N)c(=O)oc2ccccc12,0.11
COc1ccc(CCNC(=O)C2COc3ccccc3O2)cc1OC (centres undefined),0.38
CC(=O)Oc1ccc2nc(-c3ccc4c(c3)C(=O)N(CCC(C)C)C4=O)oc(=O)c2c1,1.3
COc1ccc(C(=O)n2nnc3ccccc32)cc1,-0.28
O=C(CSc1nc(O)cc(=O)[nH]1)Nc1ccc(F)cc1,-0.69
COCCCNC(=O)c1c(-c2ccccc2Cl)noc1C,2.3
CSc1cccc(NC(=O)C2CCN(S(=O)(=O)c3ccc(C)cc3)CC2)c1,-0.91
O=c1cc(O)c2c(n1-c1ccccc1)CCCC2,0.15
COc1ccc(N2C(=O)C3C(C2=O)C2(C)C=CC3(C)O2)c([N+](=O)[O-])c1 (centres undefined),-1.7
CCOc1ccc(C2C(C(=O)OCCOC)=C(C)N=C3SCCC(=O)N32)cc1OC (centres undefined),-1.3

# By substructure: the entries above containing a furan ring, fused or not
SMILES,Measles inh
Cc1c(C(=O)NCc2cccs2)oc2ccc(S(=O)(=O)N3CCC(C)CC3)cc12,-1.6
O=S(=O)(Nc1cc2c3c(oc2c2ccccc12)CCCC3)c1ccc(F)cc1,-0.3

# Additional compounds
SMILES,Measles inh
COc1ccc(NC(=O)C2=C(C)NC(=S)NC2c2ccc(Br)cc2)c(OC)c1 (centres undefined),-0.56
CC(C)OC(=O)C1C(=O)CC(C)(O)C(C(=O)OC(C)C)C1c1cccc(O)c1 (centres undefined),0.33
Cc1nc2cc(NC(=O)c3ccc([N+](=O)[O-])cc3)ccc2n1-c1ccccc1,-0.58
CCS(=O)(=O)NCCc1cc2cc(C)c(C)cc2[nH]c1=O,-0.61
COc1ccccc1CNC(=O)c1sc2nc(-c3cccs3)ccc2c1N,-0.03
Cc1onc(-c2ccccc2Cl)c1C(=O)Nc1ccc(-n2nncc2-c2ccccc2)cc1,-0.44
O=C(Nc1ccc2c(c1)OCCO2)c1cccc(C(=O)Nc2ccc3c(c2)OCCO3)c1,1.1
O=C1C(=O)N(c2nc3ccccc3s2)C(c2ccc(Br)cc2)/C1=C(\O)c1ccccc1 (centres undefined),0.86
Ic1ccc(CSc2nc3ccccc3[nH]2)cc1,1.1
Cc1cc(N2CCN(C)CC2)nc2ccc(NC(=O)CCC(=O)NC3CCCCC3)cc12,0.72
Cc1ccc(NC(=O)Cn2cc(F)c(=O)n(CC(=O)Nc3ccc(C)cc3)c2=O)cc1,-0.08
CCSC1=NCN(CCCC(=O)O)CN1,-0.08
CCOC(=O)c1ccccc1NC(=O)c1oc(=O)c2ccccc2c1-c1ccccc1,-0.18
CCOC(=O)CN(Cc1ccc(F)cc1)S(=O)(=O)c1ccc(Cl)cc1,-0.55
CCN(CC)c1ncnc2c1c(-c1ccccc1)cn2-c1cccc(C(F)(F)F)c1,-0.67
O=C(CSc1nnnn1-c1cccc2ccccc12)Nc1ccccc1Oc1ccccc1,-0.6
CCSc1nc(-c2ccc([N+](=O)[O-])cc2)nc2c1c(=O)n(C)c(=O)n2C,-0.25
CCC(C)(C(=O)NC1CCCC1)N(C(=O)Cc1cccs1)c1ccccc1 (centres undefined),-1
COc1ccc(C(=O)Oc2ccc(C)nc2)cc1[N+](=O)[O-],-0.69
COC(=O)c1cccc(N2C(=O)C3C4C=CC(C4)C3C2=O)c1 (centres undefined),-0.39
CC(=O)C1=C(O)C(=O)N(CCN2CCNCC2)C1c1ccccc1F (centres undefined),-0.83
CC1=C(C(=O)OC(C)C)C(c2ccccc2[N+](=O)[O-])C2=C(CCCC2=O)N1 (centres undefined),-1.3
CCCCOc1ccc(N2C(N)=NC(N)=NC23CCCCC3)cc1,-0.52
COc1ccc(Nc2nc3ccccc3nc2NS(=O)(=O)c2ccc(Cl)cc2)cc1OC,-0.62
O=[N+]([O-])c1ccc2oc(SCc3nc4ccccn4c3Br)nc2c1,-0.64

# Filtered by structure: the compounds so far containing a cyano group
SMILES,Measles inh
Cc1ccc(CNC(=O)c2ccc(Cn3c(=O)c4ccccc4n(Cc4ccccc4C#N)c3=O)cc2)cc1,0.56
Cc1cc(C)c(C#N)c(SCSCc2ccc(Cl)cc2)n1,-0.11

# (more compounds)
SMILES,Measles inh
Cc1ccc(C2=NN(C(=O)c3ccncc3)C(O)(C(F)(F)F)C2)cc1 (centres undefined),1.4
CCCCNS(=O)(=O)c1cc(Br)cc2c1N(C(=O)C1CC1)CC2,0
O=C1CCCC2=C1C(c1ccc(F)cc1)Nc1ccc(C(=O)c3ccccc3)cc1N2 (centres undefined),-1.6
O=C(NCc1ccco1)c1c(O)c2cccc3c2n(c1=O)CC3,-0.98
O=C(Nc1nccs1)c1cccc(N2C(=O)c3cccc([N+](=O)[O-])c3C2=O)c1,0.65
CCCc1cc(=O)oc2cc(OC(C)=O)cc(OC(C)=O)c12,0.05
O=C(c1ccc(-n2c(=S)[nH]c3ccccc3c2=O)cc1)N1CCN(c2ccc(F)cc2)CC1,-0.45
COc1ccc(NC(=O)c2ccc(Oc3ccc(C(F)(F)F)cc3[N+](=O)[O-])cc2)cc1,-1.1
O=C1c2cc(N3CCOCC3)c([N+](=O)[O-])cc2C(=O)N1CCc1ccccc1,0.19
COc1ccccc1CNS(=O)(=O)c1ccc2c(c1)CCN2C(=O)C1CCC1,-0.8
O=C1c2cc([N+](=O)[O-])cc3cc([N+](=O)[O-])cc(c23)C(=O)N1c1ccc(S(=O)(=O)Nc2ccccc2)cc1,-0.17
COc1ccc(-n2nc3c(c2NC(=O)Cc2ccc(OC)c(OC)c2)CS(=O)(=O)C3)cc1,0.12
CCOC(=O)c1sc2ncnc(N3CCN(c4ccc(OC)cc4)CC3)c2c1C,-1.2
O=c1oc2ccc(NS(=O)(=O)c3ccc(Br)cc3)cc2s1,-0.26
COc1ccc(-n2nc3c(c2NC(=O)c2ccc(S(=O)(=O)N4CCOCC4)cc2)CS(=O)(=O)C3)cc1,0.06
CCCCOc1ccc(-c2[nH]ncc2Oc2ccccc2)c(O)c1,-1
CCC(CC)C(=O)Nc1c(-c2ccc(F)cc2)nc2cc(C)ccn12,-1.8
Cc1ccc2[nH]c3c(c2c1)C(C)(C)NC(C)(C)C3,-0.19
COc1ccc(OC)c(S(=O)(=O)Nc2cccc(Cl)c2)c1,0
COc1ccccc1CNC(=O)C1CCC(=O)N1C(C)C (centres undefined),-0.57

# Not all compounds are listed. The share of hits here may be higher or lower than overall.
